HNF4A DNA FP: change in binding of human HNF4 alpha to DNA; P41235; HNF4a-FITC DNA binding, fluorescence polarization, 1 h; activity change, % at 10 µM; 360,000 tested, 0.3% active; AID 1224865; in the data active means activity change above about 30%, passing the limit was not always enough;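 further: controls were the assay level and a saturating level of protein; the project sought stronger binding though the title names inhibitors; some compounds called inactive have numbers as strong as hits; positive values seem to mean higher polarization but the record does not say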
Target sequence (P41235 whole entry, looked up): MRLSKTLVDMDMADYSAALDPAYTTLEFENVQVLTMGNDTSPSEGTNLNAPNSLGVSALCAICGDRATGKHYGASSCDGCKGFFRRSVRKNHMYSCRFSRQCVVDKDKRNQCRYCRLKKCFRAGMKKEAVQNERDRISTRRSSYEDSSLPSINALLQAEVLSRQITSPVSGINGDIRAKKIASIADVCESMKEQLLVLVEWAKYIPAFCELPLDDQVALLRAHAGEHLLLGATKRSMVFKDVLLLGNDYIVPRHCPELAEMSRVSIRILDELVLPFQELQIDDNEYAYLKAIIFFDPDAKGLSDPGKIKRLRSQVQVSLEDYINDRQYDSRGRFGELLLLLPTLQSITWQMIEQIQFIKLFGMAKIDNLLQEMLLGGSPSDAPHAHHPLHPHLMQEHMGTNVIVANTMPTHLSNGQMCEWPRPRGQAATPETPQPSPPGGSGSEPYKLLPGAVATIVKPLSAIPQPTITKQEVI
ALR inh: blocks human ALR sulfhydryl oxidase activity. 290,000 tested, 3.8% active. purified ALR, DTT oxidation, H2O2 HRP-luminol luminescence. inhibition, % (concentration not given with the values). P55789;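 active means mean and each replicate at 75% or more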;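 further: stock transfer was 7.5 nL into about 7.5 µL; 0% = neutral wells and 100% = wells with inactivated enzyme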
LANA-H2B inh: blocks KSHV LANA binding to histone H2A/H2B; inhibition, % (concentration not given with the values); 320,000 tested, 0.6% active; cell-free LANA-H2A/H2B peptide, fluorescence polarization; in the data active means inhibition mostly above about 10%, no sharp cut-off; inactive means mostly below about 6.7%;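 further: stock transfer was 7.5 nL into about 10 µL; 0% = median of vehicle wells and 100% = median of positive control wells; one replicate is shown; the record names a cut of 25% in any replicate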
E coli growth: E. coli growth inhibition; AID 1053175; Escherichia coli growth, OD600, 23 h; active compounds read low; OD600 absorbance (no concentration beside the values); 330,000 tested, 0.21% active;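 active means OD600 absorbance below the run mean of sample wells minus 3.6 SD, in any replicate, cut at about 0.56 in these data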;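 further: stock transfer was 300 nL into about 60 µL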
UCH37 inh: blocks the human deubiquitinase UCH37. Q9Y5K5. purified proteasome/UCH37, Ub-AMC cleavage fluorescence. inhibition, % (no concentration beside the values). 330,000 tested, 0.33% active;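 active means mean of two replicates above 20%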;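 further: 0% = compound-free wells with enzyme and 100% = wells lacking proteasome; stock transfer was 100 nL into about 20 µL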
Target sequence (Q9Y5K5 whole entry, looked up): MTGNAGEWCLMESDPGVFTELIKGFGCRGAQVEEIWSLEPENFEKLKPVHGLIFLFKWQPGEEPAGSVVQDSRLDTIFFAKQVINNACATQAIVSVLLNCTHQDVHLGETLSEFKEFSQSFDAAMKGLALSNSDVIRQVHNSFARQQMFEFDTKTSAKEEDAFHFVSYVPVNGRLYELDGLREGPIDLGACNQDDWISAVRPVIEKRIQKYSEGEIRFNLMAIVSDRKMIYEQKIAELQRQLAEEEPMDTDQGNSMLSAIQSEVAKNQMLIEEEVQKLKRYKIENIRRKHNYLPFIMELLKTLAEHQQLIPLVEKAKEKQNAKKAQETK
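Material: human UCH37 enzyme supplied as purified proteasome complex. Measure: % inhibition of Ub-AMC cleavage fluorescence. Medium: pH 7.4 Tris-HCl (50 mM) with ovalbumin, ATP-MgCl2, DTT. Times: 30 min preincubation with enzyme, 25 min cleavage at room temperature. Detection: AMC fluorescence intensity at 355/460 nm.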
FGF22 binding: FGF22 (human) thermal shift binding | 340,000 tested, 1.5% active | AID 651658 | recombinant FGF22 thermal shift, SYPRO orange fluorescence; percent of sucrose octasulfate shift, DMSO zero | calls only at 9.99 µM;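 active means melting point raised past a set limit in the mean and every replicate; three in four hits are not shown here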
Target sequence (Q9HCT0 whole entry, looked up): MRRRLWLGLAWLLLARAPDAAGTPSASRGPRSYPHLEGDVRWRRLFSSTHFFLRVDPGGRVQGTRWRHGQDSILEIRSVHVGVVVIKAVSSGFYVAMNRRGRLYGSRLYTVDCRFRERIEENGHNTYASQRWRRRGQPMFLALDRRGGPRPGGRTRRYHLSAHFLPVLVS
Beta2AR agonist: agonists of human beta-2 adrenergic receptor inducing internalization. P07550. Am2.2-beta2AR cells, FAP receptor internalization, flow cytometry; reference of the scale not given here. 340,000 tested, 0.43% active. response, % (no concentration beside the values);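 active means response above a set limit, near 3 SD of response in nonfluorescent compounds, cut at about 42% in these data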;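 further: stock transfer was 100 nL into about 11 µL; a reference agonist was the positive control; negative values mostly stem from fluorescent compounds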
* hit, by the source's call; i = inactive; nt = no result given.

Molecule,E coli growth,UCH37 inh,LANA-H2B inh,HNF4A DNA FP,FGF22 binding,ALR inh,Beta2AR agonist
Cc1ccc(C)c(OCCCN2CCCC2)c1,0.68,4.7,-0.8,1.8,nt,-70,-9
O=C(CSc1nnc2ccc(-c3ccccn3)nn12)Nc1ccccc1,0.7,-36,-0.5,-0.2,i,-1,-12
Cc1ccc(CCCOC(=O)C[N+]2(C)CCCCC2)cc1,0.66,1.1,0.6,2.8,i,nt,9
CCOC(=O)C[C@H]1c2ccc(C(F)(F)F)cc2S(=O)(=O)N1C(C)C,nt,3.0,2.5,-4.0,i,-3,-1
Cc1ccc(S(=O)(=O)Nc2c(C)nn(C)c2C)cc1C,0.64,1.0,0.4,3.8,i,-5,4
CCc1cc2c(=O)nc3n(c2s1)Cc1ccccc1/C3=C(/O)c1cccc([N+](=O)[O-])c1,0.71,4.0,-1.0,0.1,nt,-2,1
O=S(=O)(NCc1ccco1)c1cnc(Cl)c(Cl)c1,0.66,0.2,3.7,-1.2,i,2,1
Cc1ccc(C(=O)n2cnnc2N)cc1C,0.74,1.8,1.7,3.0,nt,57,-1
CCCNC(=S)N1CCN(C)CC1,0.65,0.2,-2.2,-4.4,nt,-4,1
O=C(Nc1cccc(-c2nc3cccnc3s2)c1)c1ccc(Cl)nc1,0.7,-10,0.9,26,i,-10,4

Just HNF4A DNA FP, Beta2AR agonist and FGF22 binding, for some of the entries so far:
Compound | HNF4A DNA FP | Beta2AR agonist | FGF22 binding
Cc1ccc(S(=O)(=O)Nc2c(C)nn(C)c2C)cc1C | 3.8 | 4 | i
CCc1cc2c(=O)nc3n(c2s1)Cc1ccccc1/C3=C(/O)c1cccc([N+](=O)[O-])c1 | 0.1 | 1 | nt
O=S(=O)(NCc1ccco1)c1cnc(Cl)c(Cl)c1 | -1.2 | 1 | i

(list continues)
Molecule,E coli growth,UCH37 inh,LANA-H2B inh,HNF4A DNA FP,FGF22 binding,ALR inh,Beta2AR agonist
CC(=O)N1c2ccc(S(=O)(=O)NCC3CCC(C(=O)Nc4cccc(C)n4)CC3)cc2CC1C (stereo unspecified),0.7,2.5,1.8,0.8,i,0,-4
Cc1ccccc1NC(=O)NNC(=O)COc1ccc2ccccc2c1,0.72,2.7,-3.7,-0.6,i,-2,-3
CCOCCCNC(=O)C1CCC(CNS(=O)(=O)c2ccc(F)cc2)CC1 (stereo unspecified),0.74,2.5,-3.4,-0.3,nt,-5,-17
COc1ccc(C)cc1NC(=O)NC1CCCCCCC1,0.71,-1.2,1.0,1.0,i,-10,-2
CCN(CC)CCNC(=O)C12CC3CC(CC(C3)C1)C2,0.7,0.2,-2.7,-2.7,nt,-8,4
N#CC(CO)(Cc1ccc(OC(F)F)cc1)c1nc2ccccc2[nH]1 (stereo unspecified),nt,nt,0.9,-1.3,i,6,-6
CNC(=O)C(=O)NCCN1CCN(C(=O)c2ccc([N+](=O)[O-])cc2)CC1,0.7,0.1,0.2,-3.7,i,-8,-3
C[C@@H](C(=O)Nc1nccs1)N1C(=O)C2CC=CCC2C1=O (stereo partly specified),0.66,-3.6,6.2,-41,i,-5,3
CC(=O)N(C)c1ccc(NC(=O)COc2ccc(Br)cc2C)cc1,0.68,4.7,-7.3,5.2,i,1,-4
CCC(CO)Oc1cc(NC(=O)c2ccccc2[N+](=O)[O-])c2ncn(C(C)C)c2c1 (stereo unspecified),0.71,5.6,-4.3,-0.2,i,-17,-1
C=CCOc1ccc(C(=O)/C=C2/C(=O)Nc3ccccc32)cc1,0.69,4.6,5.5,2.3,i,nt,-1
CCc1noc(C)c1C(=O)Nc1ccc(S(=O)(=O)N2CCC(C)CC2)cc1,0.7,1.0,2.5,-2.4,i,-6,-2
NC(=O)c1nsc(C(=O)N(c2ccccc2)C(C(=O)NC2CCCC2)c2cccs2)c1N (stereo unspecified),0.7,-29,2.5,-1.7,i,-3,-16
CCc1ccc2c(c1)c(N=NC1=NC(=O)CS1)c(O)n2CC,0.76,3.3,-0.4,-1.3,nt,17,-7
COc1ccc(/C(C)=N/NC(=O)Cc2c(C)nc(C)[nH]c2=O)cc1,nt,nt,3.2,3.6,i,5,-3
COc1ccc(-c2nc(CN3CCC(C(=O)NC4CCCc5ccccc54)CC3)c(C)o2)cc1OC (stereo unspecified),0.68,3.4,nt,-3.3,i,nt,14
C=CCn1c(SCC(=O)NCCC2=CCCCC2)nc2ccc(Cl)cc2c1=O,0.73,3.1,1.7,0.6,nt,-4,-2
CCOC(=O)C1=C(C)NC(=O)NC1c1ccc(-c2ccc(F)cc2)o1 (stereo unspecified),0.66,-2.8,-1.0,5.2,i,5,15
O=C(COC(=O)/C=C/c1cccc(F)c1)Nc1ccccc1-c1ccccc1,0.71,3.3,-2.9,-2.4,i,-5,-3
CCOc1ccc(-n2c(SCC(=O)Nc3cc(C)on3)nnc2-c2c[nH]c3ccccc23)cc1,0.72,-0.2,1.6,1.4,nt,-2,4
C=CC[C@@H](CC(=O)N[C@H](CO)Cc1ccccc1)C(=O)N[C@@H](COC(=O)[C@@H](CC=C)CC(=O)OC(C)(C)C)Cc1c[nH]c2ccccc12,nt,6.3,-1.5,1.0,i,2,3
COC(=O)c1c(NC(=O)CSc2nnc(-c3ccco3)n2Cc2ccccc2)sc(C)c1C,0.73,4.3,0.8,-1.1,nt,-1,-1
Cc1c(C(=O)Nc2cc(F)cc(F)c2)cnn1-c1ccccc1,0.69,0.6,-1.1,-0.1,i,nt,4
CN(C)CCOCCOc1ccc(Cl)cc1Br,0.68,3.6,12*,-1.4,nt,-3,0
O=C(c1cc(N2C(=O)C3C4CCC(C4)C3C2=O)ccc1Cl)N1CCN(c2ccc(F)cc2)CC1 (stereo unspecified),0.7,-2.7,nt,1.3,nt,nt,5
CCN(C(=O)CCS(=O)(=O)c1cccc2nsnc12)c1cccc(C)c1,0.71,2.2,4.3,-2.8,i,nt,5
CC1Sc2ccc(S(=O)(=O)N3CCC(C(=O)NCc4ccccc4)CC3)cc2NC1=O (stereo unspecified),0.7,1.1,5.1,2.1,i,-2,-2
Cc1ccc2[nH]c3c(c2c1)CN(C(=O)CN1CCN(c2ccccn2)CC1)CC3,0.69,3.8,6.9,-11,nt,-14,-3
CCOC(=O)c1c(NC(=O)C2C3C=CC(C3)C2C(=O)O)sc2c1CCC(C)C2 (stereo unspecified),0.67,-4.1,-1.5,-0.5,i,95*,0
COCCn1c(NCc2ccc(C)cc2)nc2c1c(=O)[nH]c(=O)n2C,0.79,1.4,4.1,0.6,nt,-11,-9

Shown with two lines to a compound: 3 of the compounds above
Results follow in this order: E coli growth, UCH37 inh, LANA-H2B inh, HNF4A DNA FP, FGF22 binding, ALR inh, Beta2AR agonist
> Cc1c(C(=O)Nc2cc(F)cc(F)c2)cnn1-c1ccccc1
→ 0.69, 0.6, -1.1, -0.1, i, nt, 4
> CN(C)CCOCCOc1ccc(Cl)cc1Br
→ 0.68, 3.6, 12*, -1.4, nt, -3, 0
> C=CC[C@@H](CC(=O)N[C@H](CO)Cc1ccccc1)C(=O)N[C@@H](COC(=O)[C@@H](CC=C)CC(=O)OC(C)(C)C)Cc1c[nH]c2ccccc12
→ nt, 6.3, -1.5, 1.0, i, 2, 3

More compounds follow.
Molecule,E coli growth,UCH37 inh,LANA-H2B inh,HNF4A DNA FP,FGF22 binding,ALR inh,Beta2AR agonist
NC(Cc1ccc(O)c([N+](=O)[O-])c1)C(=O)O (stereo unspecified),0.63,3.6,-4.8,2.1,nt,nt,6
O=C(/C=C/c1ccco1)NC(=S)Nc1ccccc1N1CCCC1,0.69,5.3,-2.1,1.5,nt,4,0
O=C(Cc1ccccc1)Nn1c(-c2ccccc2)nc2ccccc2c1=O,0.7,-0.3,-0.6,-0.9,i,-1,-1
Cc1ccc(CNC(=O)CS(=O)(=O)Cc2nc(-c3ccccc3F)oc2C)cc1,0.68,2.1,1.0,0.0,i,-10,9
CCOC(=O)c1nn(-c2ccccc2)c2nnc(Cc3ccc(C)cc3)c(=O)n12,0.71,2.5,4.0,2.6,i,-4,2
COc1ccc(NC(=O)c2ccccc2NC(=O)c2ccccc2)cc1,0.71,-3.9,0.2,-1.0,i,0,-4
CCOC(=O)Cc1csc(NC(=O)CSc2nnnn2-c2ccc(C)cc2C)n1,0.77,1.8,1.2,-4.6,nt,3,-4
CCCOC(=O)Nc1nnc(CCC)s1,0.73,2.9,-8.0,5.8,nt,-4,-9
Nc1nc(Nc2cccc(Cl)c2)n[nH]1,0.6,3.5,1.9,-1.5,i,41,-2
CC1CCC2(CC1)NC(=O)N(CC(=O)N1CCN(S(=O)(=O)c3ccccc3)CC1)C2=O (stereo unspecified),0.7,0.8,10,3.2,nt,3,2
CN(C(=O)COC(=O)/C=C/c1ccc(C(F)(F)F)cc1)C1CCS(=O)(=O)C1 (stereo unspecified),0.73,2.4,0.9,-1.4,i,-1,7
COc1ccccc1CN1CCNC(=O)C1CC(=O)NCc1csc(C)n1 (stereo unspecified),0.7,-0.7,-0.8,-2.0,i,-6,-5
Clc1ccc(-n2nnnc2CN2CCCCC2)cc1Cl,0.72,6.2,-3.5,-0.3,nt,-4,-3
O=C(CCN1C(=O)c2cccc3cccc(c23)C1=O)NCc1cccnc1,0.71,-158,-0.5,-0.6,i,0,8
Cc1ccccc1C(=O)N1CCN(c2ccc(NC(=O)c3cccnc3Cl)cc2)CC1,0.66,1.1,-0.6,4.0,i,-10,3
O=C(CN1CCN(c2ccccc2O)CC1)Nc1ccc2c(c1)OCCCO2,0.66,-0.2,2.6,3.1,i,100*,-3
O=C(CCn1nnc2ccccc21)N1CCN(c2ccccc2)CC1,0.68,2.2,-5.1,0.4,nt,56,-6
O=C(NC1CCCC1)[C@@H]1CSC2c3ccccc3C(=O)N21 (stereo partly specified),0.68,6.7,1.3,2.5,i,-1,-2
Cc1oc(-c2cccc(Cl)c2)nc1CSc1nc2c(c(=O)[nH]1)CCC2,0.72,5.6,1.5,2.6,nt,nt,-5
CN(C)CC1CCCCC1OC(=O)/C=C/c1ccccc1 (stereo unspecified),0.69,3.3,4.8,1.6,i,-5,2
Cc1ccc(C)c(NC(=O)C(OC(=O)c2cnc(C)cn2)c2ccccc2)c1 (stereo unspecified),0.68,0.4,0.1,-1.2,i,-2,-3
CCOc1ccccc1NC(=O)C(OC(=O)c1ccc(O)cc1)c1ccccc1 (stereo unspecified),0.69,1.6,-4.1,-0.4,i,-10,10
Cc1c(N=Cc2ccncc2)c(=O)n(-c2ccccc2)n1C,0.74,10,-1.2,-2.6,nt,24,10
O=C(NCCc1c[nH]c2ccccc12)/C(=C\c1cccnc1)NC(=O)c1cccs1,0.71,4.5,1.4,1.9,nt,2,6
NC(=O)c1ccc(NC(=O)CSc2nncn2-c2ccccc2)cc1,0.69,1.8,4.8,0.0,i,-3,-12
Cc1c(C(=O)N2CCN(Cc3ccc4c(c3)OCO4)CC2)sc2ncnc(N3CCN(c4ccccc4)CC3)c12,0.71,0.0,-0.7,-3.5,i,-3,21
C=CCn1c(COc2cccc(C)c2)nnc1SCC(=O)c1c(N)n(C)c(=O)n(C)c1=O,nt,nt,nt,3.8,i,nt,2
CN(C)/C=C1\NC(=S)N(c2ccc(Cl)cc2)C1=O,0.66,14,-0.2,8.4,nt,20,3
O=S(=O)(NC1=NCCCCC1)c1cc(F)ccc1F,0.67,2.0,-13,4.3,i,nt,5
CC(C)(C)n1cnc2cc(NC(=O)c3cccs3)ccc21,0.7,2.8,-2.6,1.5,i,1,-20
N#C/C(=C\c1cccc(O)c1)C(=O)N1CCCCC1,0.69,0.8,3.3,-2.6,i,nt,14
CCc1ccc2c(c1)C(=O)C[C@]1(CCC[C@H](C)C1)O2,nt,-6.5,-3.1,0.6,i,-8,1

Source: PubChem BioAssay

Only part of the results is shown (hit frequency here may not be typical).
